Screening results: PubChem BioAssay, several laboratories
eIF4H inh = inhibitors of RNA binding by human eIF4H; Q15056; eIF4H fluorescence polarization binding assay; inhibition, % at 35 µM; 290,000 tested, 0.94% active; AID 2012;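 active = 50% or more with normal probe brightness, or confirmed in later tests; inconclusive = above 50% with abnormal brightness, or retests that disagree; inactive = below 50% or failed in later tests; about a fifth of its hits are not listed in these tables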;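 note: calls also rest on retests at 20 µM and on dose response follow-up; 0% = protein and probe with vehicle and 100% = probe without protein; strong numbers were not always called active; many hits fall short of the cut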
CSC inhib = blocks cancer stem cells; inhibition, % at 7.5 µM; cancer stem cell-like cells viability, luminescence; 300,000 tested, 1.1% active;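 active = mean at 75% or more and at least half the replicates too; inconclusive = mean and replicates disagree; tested in HMLE shEcad cells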;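 note: 0% = median of negative and 100% = median of positive control wells; the first replicate is given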
UUG fidelity = modulators of start codon recognition fidelity in yeast | 350,000 tested, 0.13% active | S. cerevisiae UUG-firefly luciferase reporter, luminescence/redox ratio | activity score, % at 18.7 µM;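 active = replicate mean at a twofold rise or more, about +100% in these data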;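 note: firefly luciferase made from a UUG start codon reports start codon fidelity; reporter light over untreated wells divided by growth signal over untreated wells; some hits fall short of that in this replicate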
PABP FP inh = PABP-poly(A) binding inhibition; 290,000 tested, 1% active; P11940; PABP-poly(A) RNA binding, fluorescence polarization; inhibition, % at 35 µM;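 active = 50% or more with normal probe brightness, or confirmed in later tests; inconclusive = above 50% with abnormal brightness, or retests that disagree; inactive = below 50% or failed in later tests; about a fifth of its hits are not listed in these tables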;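 note: calls also rest on retests at 20 µM and on dose response follow-up; controls were probe without protein and protein plus probe with vehicle; some compounds called inactive have numbers as strong as hits; many hits fall short of the cut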
Rce1 inhib = yeast Ras-converting enzyme inhibition; Q03530; yeast membranes, quenched prenylated peptide cleavage fluorescence; calls only; 290,000 tested, 0.27% active;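 active = fall in fluorescence gain of 50% or more versus controls, with final raw signal at or below 3038400; inconclusive = same 50% fall but final raw signal above 3038400; inactive = fall in fluorescence gain under 50%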;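 note: plate controls were neutral control wells for no effect and wells lacking membranes for full effect; tested at 10 µM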
Target sequence (Q03530 whole entry, looked up): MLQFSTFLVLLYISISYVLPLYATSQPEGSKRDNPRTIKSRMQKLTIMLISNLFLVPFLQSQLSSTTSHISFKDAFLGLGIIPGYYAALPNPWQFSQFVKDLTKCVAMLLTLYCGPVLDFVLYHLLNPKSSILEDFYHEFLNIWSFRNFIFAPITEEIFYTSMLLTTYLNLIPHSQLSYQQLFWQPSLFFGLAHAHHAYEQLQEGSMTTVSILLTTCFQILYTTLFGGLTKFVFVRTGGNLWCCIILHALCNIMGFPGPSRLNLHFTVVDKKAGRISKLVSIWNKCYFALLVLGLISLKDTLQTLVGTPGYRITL
MT1-MMP act inh = MT1-MMP (human) activation inhibition; P50281; HT1080 RFP-PRO-GFP cells, GFP/RFP ratio fluorescence, overnight; percent of plate control window, DMSO zero; GFP/RFP ratio change, % at 20 µM; 360,000 tested, 0.061% active; AID 651647;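 active = GFP/RFP ratio change of at least 30% with cell ATP level not reduced by more than half and red fluorescence within 50% of control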; note: strong numbers were not always called active
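Material: RFP-PRO-GFP reporter HT1080 cells. Dosing: single-point 20 µM compound, 1% DMSO. Controls: DMSO and RFP-L50D-GFP cell wells. Timing: cells overnight before dosing, compound overnight, 37 °C, 5% CO2. Measure: GFP/RFP fluorescence ratio.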
HIV Env fusion = blocks HIV Env-driven cell-cell fusion; HeLa-JRFL Env/CEM21 cell fusion, luciferase; inhibition, % at 12.3 µM; 360,000 tested, 1.1% active; AID 651610;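 active = mean replicate inhibition score of at least 50 and every replicate individually at or above 50; inconclusive = only one of the two criteria met; inactive = mean below 50 and not all replicates reaching 50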;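 note: 0% = plate neutral controls and 100% = maraviroc near 300 nM; one replicate is shown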
eIF4H inh retest = recorded beside eIF4H inh, whose call it bears; inhibition, %; compound at 20 µM; confirmation average;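 mean of two retest wells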
PABP FP inh retest = second read-out of PABP FP inh, no call of its own (marks repeat the call); inhibition, %; compound at 20 µM; confirmation repeats;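 mean of two retest wells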
MT1-MMP act inh RFP = recorded beside MT1-MMP act inh, whose call it bears; RFP signal change, %; measured here: RFP expression control read;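 0 = vehicle wells; hits needed this value within 50% of zero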
Active calls of the source: *; i = inactive; ? = inconclusive; / = not tested or not shown; & = joins results of further samples; [ ] = remark or other dose.

Start of the listing, in advance:
SMILES	eIF4H inh	CSC inhib	UUG fidelity	PABP FP inh	Rce1 inhib	MT1-MMP act inh	MT1-MMP act inh RFP	HIV Env fusion	others
CCC(C(=O)NCc1ccco1)n1nc(-c2ccc(OC)cc2)ccc1=O (configuration not stated)	35	-16	-13	10	i	2	5	/
CCOc1ccc(NC(=O)CSc2nc3ccccc3c(=O)n2Cc2cccs2)cc1	-13	10	-14	0	i	6	3	/

This part in full, from the first entry:
SMILES	eIF4H inh	CSC inhib	UUG fidelity	PABP FP inh	Rce1 inhib	MT1-MMP act inh	MT1-MMP act inh RFP	HIV Env fusion	others
CCC(C(=O)NCc1ccco1)n1nc(-c2ccc(OC)cc2)ccc1=O (configuration not stated)	35	-16	-13	10	i	2	5	/
CCOc1ccc(NC(=O)CSc2nc3ccccc3c(=O)n2Cc2cccs2)cc1	-13	10	-14	0	i	6	3	/
Cc1ccnc(NS(=O)(=O)c2ccc(NC(=O)c3ccc(Br)o3)cc2)n1	-10	7	/	-3	i	-3	-4	-7
CCCCCCCNC(=O)C1(CC2CC(c3ccc(Cl)cc3)=NO2)CCN(C(=O)C2(C)CC2)CC1 (configuration not stated)	-5	-15	-6	4	i	-9	-13	/
O=C(CSc1nnnn1C1CCCCC1)Nc1ccc2c(c1)OCO2	1	/	-13	-9	i	2	4	/
COc1cc(C(=O)N2CCN(c3ccccc3Cl)CC2)ccc1OCC(=O)N1CCOCC1	/	/	-9	/	/	-2	-1	0
COc1ccc(-c2nc(SC(C)C(=O)c3c(N)n(C)c(=O)n(C)c3=O)n[nH]2)cc1 (configuration not stated)	/	-11	-4	/	/	1	-1	/
Cc1ccc(C)n1-c1ccc(C(=O)NCC2CCCO2)cc1 (configuration not stated)	16	3	4	10	/	-8	2	-91
COc1c(C=O)c(CCN(C)C(=O)c2ccc(F)cc2)cc2c1OCO2	-9	-17	-7	4	i	3	-2	4
Cc1ccc(S(=O)(=O)N2CCOCC2)cc1C(=O)NC1CCCCC1	-1	-14	-7	-8	i	-3	2	-7
COc1cccc(CN2CC(C(=O)N(C)Cc3[nH]c4ccccc4c3C)CCC2=O)c1 (configuration not stated)	-12	-3	-4	-6	i	-6	-2	1
CCN1C(=O)N[C@@H](c2ccco2)C(C(=O)OC)=C1C	/	1	-14	/	i	0	1	0
CN1CCN(C(=O)CCn2nc(-c3ccccc3)c3ccccc3c2=O)CC1	-2	/	-15	-8	i	-2	-4	/
COC(=O)c1sc(NC(=O)CSc2nc3cccnc3n2C2CCCCC2)nc1C	-1	-10	-9	-7	i	-3	-4	-11
O=C(NC1CC2CCCC(C1)N2C(=O)Nc1ccc(F)cc1)c1ccccc1 (configuration not stated)	4	1	-8	15	i	0	-1	-6
CC1(C)CC(=O)C=C(C(=O)N2CCCC(C(=O)c3cccc(C(F)(F)F)c3)C2)O1 (configuration not stated)	-14	18	3	1	i	7	4	5
Cc1ccc(C)c(N(C(=O)c2snc(C(N)=O)c2N)C(C(=O)NCC2CCCO2)c2cccs2)c1 (configuration not stated)	-1	-7	-2	-7	i	-2	-4	-20
C=CCn1c(CCc2ccccc2)nnc1SCC(N)=O	10	-12	-17	-2	i	-2	3	-12
O=C(c1cc2ccccc2o1)N1CCCC1	-7	-10	/	1	i	0	0	-6
O=c1c2ccccc2[nH]c(=S)n1CCN1CCC(=C(c2ccc(F)cc2)c2ccc(F)cc2)CC1	-4	/	/	5	i	/	/	/
Cn1c(=O)c2c(O)cc(=O)n(-c3ccccc3)c2n(C)c1=O	-5	-8	-9	-6	/	9	4	/
Cc1cc2ncn(C(=O)c3ccc4c(c3)OCO4)c2cc1C	-8	3	-20	0	i	0	1	/
CCCNC(=O)COc1coc(CN2CCN(c3cccc(Cl)c3)CC2)cc1=O	10	-7	-19	-4	i	-1	-1	9
CCc1noc(C)c1C(=O)Nc1nnc(C2CCCCC2)s1	3	-2	/	-8	i	/	/	/
Cc1ccc(C)c(N2CCN(C(=O)c3cc4sccc4n3C)CC2)c1	-3	18	/	8	i	-5	-6	33

Pulled by structure from the list above, 3 records:
SMILES	eIF4H inh	CSC inhib	UUG fidelity	PABP FP inh	Rce1 inhib	MT1-MMP act inh	MT1-MMP act inh RFP	HIV Env fusion	others
CCOc1ccc(NC(=O)CSc2nc3ccccc3c(=O)n2Cc2cccs2)cc1	-13	10	-14	0	i	6	3	/
C=CCn1c(CCc2ccccc2)nnc1SCC(N)=O	10	-12	-17	-2	i	-2	3	-12
CN1CCN(C(=O)CCn2nc(-c3ccccc3)c3ccccc3c2=O)CC1	-2	/	-15	-8	i	-2	-4	/

Later entries
SMILES	eIF4H inh	CSC inhib	UUG fidelity	PABP FP inh	Rce1 inhib	MT1-MMP act inh	MT1-MMP act inh RFP	HIV Env fusion	others
Cc1cc(NC(=O)C2CC(c3ccccc3Cl)=NO2)no1 (configuration not stated)	-1	2	-9	2	i	-2	-2	4
Cc1ccc(-n2c(CSc3nc(C)cc(C)n3)nnc2SCC(=O)Nc2nccs2)cc1	-8	-14	-15	-5	i	1	6	10
CC(C)Cc1cc(CNC(=O)C2CCC(=O)N(Cc3cccc(C(F)(F)F)c3)C2)on1 (configuration not stated)	-11	-1	-6	-5	i	0	-2	0
COc1ccc2c(c1)O[C@@H](c1cccc(C(F)(F)F)c1)[C@H](OC(=O)N[C@H]1CCCc3ccccc31)C2=O	0	-14	/	8	i	/	/	/
O=C(COC(=O)CCc1ccc(S(=O)(=O)N2CCOCC2)cc1)Nc1ccc(Cl)cn1	0	/	-15	9	i	0	6	15
COc1ccc(NC(=O)Nc2ccccc2F)cc1	-1	22	-27	3	i	3	-3	/
Oc1ccc(CCNc2ncnc3ccc(Cl)cc23)cc1	-2	86*	-19	2	i	-4	-33	-2
Cc1cccc(NC(=S)NC(=O)c2oc3ccccc3c2C)n1	1	/	-12	3	i	4	2	-20
CCn1cc(C(=O)NCc2ccco2)c(=O)c2cc(F)c(N3CCN(C(=O)c4ccco4)CC3)cc21	60	4	-38	14	i	0	-6	/	eIF4H inh retest=18;PABP FP inh retest=7
COc1cccc(C2=NN(C(=O)c3ccccc3)C(O)(C(F)(F)F)C2)c1 (configuration not stated)	-5	-8	0	5	i	-3	-1	-168
O=S(=O)(Nc1ccc(S(=O)(=O)Nc2nccs2)cc1)c1ccc2c(c1)OCCO2	2	-5	-33	3	i	0	6	-16
O=C(CN1CCC(N2CCCCC2)CC1)N1CCCc2ccccc21	17	-6	-8	25	i	3	4	-33
Brc1ccccc1C1CC(c2ccccc2)=Nc2ccccc2N1 (configuration not stated)	-2	9	/	1	i	-9	-4	-38
O=C(NC1CCCC1)c1cccc2c1C(=O)c1ccc(N3CCCCC3)cc1S2(=O)=O	/	-14	-17	/	/	-66	-2	-17
C[C@@H]1CN([C@@H](C)CO)C(=O)c2cc(Br)cnc2O[C@H]1CN(C)C(=O)c1ccccc1F	/	/	6&-23&-25	/	/	1	5	-2
Cc1cc(=O)oc2c(C(=O)c3ccccc3)c(OCC(N)=O)ccc12	-8	-4	-4	1	i	1	0	2
CC(Oc1cccc(Cl)c1)C(=O)N(C)CC(=O)Nc1ccc(N2CCOCC2)cc1 (configuration not stated)	/	-1	/	/	i	-19	-20	?
CC(C)Oc1cccc(C(=O)C2CCCN(C(=O)c3cc(C(F)(F)F)[nH]n3)C2)c1 (configuration not stated)	-17	15	0	6	i	0	-4	-12
COc1ccc(N(CC(=O)NC2CCCC2)C(=O)CCC(=O)Nc2cc(C)on2)cc1OC	-1	3	-1	-3	i	-1	2	8
COc1ccccc1OCCN1CSC(=S)N(C)C1	10	?	/	5	i	6	4	/
COc1ccccc1-c1nnc(SCC(=O)NC2CCS(=O)(=O)C2)n1N (configuration not stated)	-1	-7	-7	0	i	1	7	8
O=C(CC(=O)c1cccc([N+](=O)[O-])c1)Nc1ccccc1Cl	1	-6	/	5	/	5	6	-12
COc1ccc(C(=O)COC(=O)c2ccc3c(c2)OCCO3)c(OC)c1	/	/	-11	/	/	8	2	-12
CCOC(=O)CC(=O)CSc1nc2sc(C)cc2c(=O)n1Cc1ccco1	11	-4	-2	21	i	-2	1	/
O=C(NNC(=O)C1CCCN(S(=O)(=O)c2ccc3ccccc3c2)C1)C1CC1 (configuration not stated)	-8	/	/	-4	i	0	-4	-3

5 neighbouring compounds from above:
SMILES	eIF4H inh	CSC inhib	UUG fidelity	PABP FP inh	Rce1 inhib	MT1-MMP act inh	MT1-MMP act inh RFP	HIV Env fusion	others
Cc1cc(NC(=O)C2CC(c3ccccc3Cl)=NO2)no1 (configuration not stated)	-1	2	-9	2	i	-2	-2	4
Cc1ccc(-n2c(CSc3nc(C)cc(C)n3)nnc2SCC(=O)Nc2nccs2)cc1	-8	-14	-15	-5	i	1	6	10
CC(C)Cc1cc(CNC(=O)C2CCC(=O)N(Cc3cccc(C(F)(F)F)c3)C2)on1 (configuration not stated)	-11	-1	-6	-5	i	0	-2	0
COc1ccc2c(c1)O[C@@H](c1cccc(C(F)(F)F)c1)[C@H](OC(=O)N[C@H]1CCCc3ccccc31)C2=O	0	-14	/	8	i	/	/	/
O=C(COC(=O)CCc1ccc(S(=O)(=O)N2CCOCC2)cc1)Nc1ccc(Cl)cn1	0	/	-15	9	i	0	6	15

Later entries.
SMILES	eIF4H inh	CSC inhib	UUG fidelity	PABP FP inh	Rce1 inhib	MT1-MMP act inh	MT1-MMP act inh RFP	HIV Env fusion	others
Cc1nn(C)c(C(=O)N2CCN(C(=O)c3ccco3)CC2)c1Br	-8	-8	/	-15	i	-8	1	8
O=C(/C=C/c1ccccc1)NC1CCCc2ccccc21 (configuration not stated)	-2	-6	/	-9	i	/	/	/
O=C(O)c1cnn(-c2nc(-c3ccc(Cl)c(Cl)c3)cs2)c1C(F)(F)F	-5	24	-18	6	i	-3	0	-13
Cc1ccc2c(c1)N(CC(=O)NCCCN1CCCCC1)C(=O)c1cccnc1O2	1	1	-4	0	i	1	3	25
Cc1ccc(C)c(CSc2nnc(-c3cccnc3)n2N)c1	-7	-10	-23	-3	/	5	1	5
CC1CN(CCc2ccccc2)c2nc3c(c(=O)[nH]c(=O)n3C)n2C1 (configuration not stated)	3	-2	4	10	i	2	2	/
Nc1ccc(-c2cc(-c3ccc(N)cc3)nc(-c3ccccc3)n2)cc1	-10	-1	-13	6	i	-3	2	-15
C[C@@H]1CN([C@@H](C)CO)C(=O)CCCn2nncc2CO[C@H]1CN(C)S(=O)(=O)c1cccc(F)c1	/	/	-15&0	/	/	1	1	-7[16.7 µM]
O=C(NC1CCCC1)c1ccc(S(=O)(=O)N2CCOCC2)cc1	-4	-15	-3	16	i	8	21	-5
Cc1oc(-c2cccc(Cl)c2)nc1CN1CCC(C(=O)NCc2ccco2)CC1	-9	-8	-10	-6	i	4	2	21
Nc1nonc1C(=O)N/N=C/c1ccc(-c2cccc([N+](=O)[O-])c2)o1	4	4	8	7	i	2	3	-17

3 entries out of the list, arranged by length of the SMILES, descending:
SMILES	eIF4H inh	CSC inhib	UUG fidelity	PABP FP inh	Rce1 inhib	MT1-MMP act inh	MT1-MMP act inh RFP	HIV Env fusion	others
CC1CN(CCc2ccccc2)c2nc3c(c(=O)[nH]c(=O)n3C)n2C1 (configuration not stated)	3	-2	4	10	i	2	2	/
Cc1nn(C)c(C(=O)N2CCN(C(=O)c3ccco3)CC2)c1Br	-8	-8	/	-15	i	-8	1	8
O=C(NC1CCCC1)c1ccc(S(=O)(=O)N2CCOCC2)cc1	-4	-15	-3	16	i	8	21	-5
